# Tg IFNy HTS: blocks Toxoplasma gondii growth in the presence of IFN-gamma; Toxoplasma gondii growth in IFN-gamma-treated host cells; stronger effect = lower value; reference of the scale not given here; activity change, negative = inhibition, %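 (about 20 µM by stock and volumes)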; 69,000 compounds, 3.8% hits; AID 1259416;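 active = below -70%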;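 also: host cells are HeLa cells infected with Toxoplasma gondii; parasite growth read as luciferase light; one replicate is shown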
# An asterisk follows results filed as active; i = inactive; & = joins results of further samples. An excerpt. The share of hits here may be higher or lower than overall.
mol	Tg IFNy HTS
O=C(Cc1c[nH]c2ccccc12)NCC1CCN(c2cc(-c3ccccn3)[nH]n2)CC1	71
CCc1csc(CNC(=O)c2cc(C3CC3)[nH]n2)n1	-38
N#Cc1c(-c2cccs2)cc2c(c1N)c(=O)oc1ccccc12	54
Cc1ccc(Cl)cc1NC(=O)Nc1ccc(-c2nc(-c3ccccc3)co2)cc1	-39
O=C(NCCc1csc(-c2ccc(F)cc2)n1)C(=O)Nc1ccccc1Cl	43
CN1C(=O)CCc2cc(NC(=O)c3ccc(Cl)nc3)ccc21	-65
c1cnc(NC2CC3(CCN(Cc4ccncc4)CC3)C2)nc1	5
COc1ccc(Nc2nc(N)nc(CSc3nccn3C)n2)cc1	246

# Next records
mol	Tg IFNy HTS
COc1ccc(-c2nc(Nc3ccc(C)c(F)c3)c3ccccc3n2)cc1	-45
CN(Cc1cncnc1)[C@H]1CN(C(N)=O)[C@H]2CCCO[C@@H]12	17
O=C(NCC1CCN(Cc2cnn(-c3ccccc3)c2)C1)C1CCC1 (stereo not given)	5
COc1ccc(-c2nc(CCNC(=O)c3ccc(OC)c(OC)c3)cs2)cc1	i
C=CCn1c(=O)c2cnc(Nc3ccc(N4CCN(C)CC4)cc3)nc2n1-c1cccc(C(C)(C)O)n1	-71*
CC(=O)N1CCC2(CC1)CCN(C(=O)c1ccc(C)nc1)C2	8
O=C1NCC2(CCCN(C(=O)CCN3C(=O)COc4ccccc43)C2)O1 (stereo not given)	-1
COc1c[nH]c(CN2CCOc3c(O)cc(-c4ccc(C)cc4)cc3C2)cc1=O	31

# Single entries from the entries so far.
# `O=C1NCC2(CCCN(C(=O)CCN3C(=O)COc4ccccc43)C2)O1` (stereo not given) | Tg IFNy HTS: -1
# `CC(=O)N1CCC2(CC1)CCN(C(=O)c1ccc(C)nc1)C2` | Tg IFNy HTS: 8

# More entries follow:
mol	Tg IFNy HTS
Cn1c(SCC(=O)NCc2ccc3c(c2)OCO3)nnc1-c1cc2ccccc2cc1O	8
Cn1ncc2c(Nc3ccc(C(=O)O)cc3)ncnc21	5
Cc1cc(COc2ccccc2)oc1C(=O)N1CCCn2cncc2C1	2
O=C1C(=O)N2C(=C1C(=O)N1CCOCC1)c1ccccc1CC21CCCC1	-11
COc1ncc(C(=O)NC(Cc2ccccc2)c2ccc3c(c2)OCCO3)cn1 (stereo not given)	67
CN(Cc1ccccc1-n1cccn1)C(=O)c1cnn2ccn(C)c12	-1
Cc1ccc(CNc2nc(-c3ccc(Cl)cc3)nc3ccccc23)cc1	-73
O=S(=O)(c1cccs1)n1ccc(-c2ccc3c(c2)CCO3)n1	-58

# Following part
mol	Tg IFNy HTS
COCC(=O)N1CCC2(CCC(=O)N2CCN2CCCC2)CC1	53
C[C@H]1CN([C@@H](C)CO)C(=O)c2cccc(NC(=O)NC3CCCCC3)c2O[C@H]1CN(C)Cc1ccc(C(F)(F)F)cc1	-3
CC(C)n1cnnc1CN(C)C(=O)C(=O)c1ccco1	3
CN(Cc1cccc(O)c1)C(=O)C1CC2(CCNCC2)CN1 (stereo not given)	-52
COc1nn(CC(=O)Nc2nc3c(s2)CCCCCC3)c(=O)c2ccccc12	-86*
Cc1ccc(-c2ccc(C(=O)O)[nH]2)cc1	27
COc1ccc(S(=O)(=O)N(Cc2nc(-c3cccc(C)c3)oc2C)c2ccccc2OC)cc1	-48
Cc1nc(C)c(C(=O)N2CCC(O)(Cn3ccnc3C)CC2)s1	39

# (listing goes on)
mol	Tg IFNy HTS
Cc1noc(C)c1NC(=O)Nc1ccc2c(c1)CC(=O)N([C@H](C)CO)C[C@H](C)[C@H](CN(C)Cc1ccc(C(F)(F)F)cc1)O2	7
CCn1c(=O)c(-c2nc(-c3cccc(C)c3)no2)c(O)c2ccccc21	37
Cn1c(Cc2nnn(Cc3ccc(Cl)cc3Cl)n2)nnc1SCC(N)=O	-18
O=C(NCCc1csc(-c2ccccc2)n1)[C@H]1CSCN1C(=O)Cc1ccc(F)cc1	2
O=C(O)C(Cc1ccc(F)cc1)c1ccccc1 (stereo not given)	-10
CCN1CCC(CNS(=O)(=O)c2cccc(NC(C)=O)c2)C1 (stereo not given)	-9
O=c1[nH]c2ccccc2cc1-c1nccn1Cc1ccccc1Cn1cccn1	2
CCC(C)NC(=O)c1ccc(-c2nc(CN3CCN(c4ccccc4)CC3)c(C)o2)cc1 (stereo not given)	5

# (next part)
mol	Tg IFNy HTS
Cn1c(CNC(=O)Cc2ccc3c(c2)OCCO3)cc2cc(Cl)ccc21	44
CCCCCCCCCCCCc1ccc(S(=O)(=O)Nc2nncs2)cc1	27
CSc1ccc(-c2noc(-c3c(O)c4cc(C)ccc4[nH]c3=O)n2)cc1	17
Cc1ccc(-c2coc(-c3ccc(NC(=O)NCc4ccc(F)cc4)cc3)n2)c(C)c1	20
CC(C)NC(=O)C1(Cc2ccc(-c3ccsc3)cc2)CCN(C(=O)c2ccnn2C)C1 (stereo not given)	0
CCc1cc(C(=O)NCc2cccnc2Oc2cccc(C(F)(F)F)c2)no1	1
CN1C(=O)c2cc(NC(=O)Cc3cccs3)ccc2OC[C@@H]2O[C@@H](CC(=O)N[C@@H]3CCN(Cc4ccccc4)C3)CC[C@@H]21	14
COCC(=O)Nc1cccc(-c2ccccc2C(C)=O)c1	-3

# (next part)
mol	Tg IFNy HTS
CN1C(=O)CC(c2cnn(C)c2)C12CCN(C(=O)c1ccco1)CC2 (stereo not given)	0
CC(=O)Nc1nnc(CCS(=O)(=O)c2ccc(C)c(C)c2)s1	-7
C=CCOCc1ncn2c1CN(Cc1csc(C)n1)CCC2	-13
CCCS(=O)(=O)N1CCC2(CC1)CN(c1cnn(C)c1)C(=O)CO2	-10
CCOCC1COCCC12CCN(C(=O)c1ccn(C)n1)CC2 (stereo not given)	53
Cc1ccc2ncc(NC(=O)c3ccc(C(C)(C)C)cc3)c(=O)n2c1	149
Cc1ccc2nc(CN3CCC4(CCCO4)CCC3=O)cn2c1 (stereo not given)	5
CO[C@H]1CC[C@@H]2CCOc3c(C#N)cccc3C(=O)N(C)CC3(CCCCC3)CC(=O)N(C)C[C@@H]1O2	28

# Next structures.
mol	Tg IFNy HTS
Cc1nc2nc(C)c(CCC(=O)O)c(=O)n2[nH]1	-9
O=C1N[C@H](c2ccccc2)COCc2cnnn2CC[C@H]1Cc1ccc(C(F)(F)F)cc1	-52
CN(Cc1ccccc1)C(=O)[C@H](Cc1ccc2ccccc2c1)NC(=O)[C@@H]1C[C@@H](O)CN1C(=O)c1cn(C)c2ccccc12	-21&-2
COC(=O)[C@@H]1C[C@@H](N(C)C)CN1S(=O)(=O)c1c(C)ccc2nsnc12	-42
COc1cccc(CNC(=O)c2c(O)c3cccnc3n(-c3cccc(F)c3)c2=O)c1	-98*
O=C(C[C@@H]1CC[C@@H]2[C@H](COC[C@H](O)CN2C(=O)Nc2ccccc2)O1)NCc1ccccc1F	36
Cn1cc(SCC(=O)NCc2cc(=O)[nH]c(C(C)(C)C)n2)c2ccccc21	7
COc1ccccc1-c1nc(Cn2ccn3nc(-c4ccccc4)cc3c2=O)c(C)o1	45

# (further entries)
mol	Tg IFNy HTS
CC(C)CCC1=NC2(CCN(C(=O)C3CCOC(C)(C)C3)CC2)C(=O)N1 (stereo not given)	2
CCN1c2ccccc2-n2cccc2C12CCN(C(=O)Nc1ccccc1C(F)(F)F)CC2	185
O=C(NCc1noc(-c2cccc(Cl)c2)n1)c1coc(-c2ccccc2)n1	102
Cc1cc(C)nc(N2CCN(c3c4c(nc5c(-c6ccccc6)c(C)nn35)CCC4)CC2)n1	-76*
CCSc1nc(CC(=O)NCc2snnc2C(C)C)cs1	-45
COc1ccccc1NC(=O)Cn1ncc2c(N3CCN(c4ccccc4)CC3)ncnc21	74
COCCN1[C@@H]2CCN(c3ncccn3)CC[C@@H]2Oc2ccccc2S1(=O)=O	-11
Cc1[nH]c2ccc(CNC(=O)CC3CCS(=O)(=O)C3)cc2c1C (stereo not given)	-10

# Exported as labelled records: part of the list above
> COc1ccccc1NC(=O)Cn1ncc2c(N3CCN(c4ccccc4)CC3)ncnc21
  Tg IFNy HTS: 74

> CCN1c2ccccc2-n2cccc2C12CCN(C(=O)Nc1ccccc1C(F)(F)F)CC2
  Tg IFNy HTS: 185

> Cc1[nH]c2ccc(CNC(=O)CC3CCS(=O)(=O)C3)cc2c1C (stereo not given)
  Tg IFNy HTS: -10

> COCCN1[C@@H]2CCN(c3ncccn3)CC[C@@H]2Oc2ccccc2S1(=O)=O
  Tg IFNy HTS: -11

# Additional records follow:
mol	Tg IFNy HTS
Cc1cccc(NC(=O)N2CCC3(CC2)Nc2ccccc2-n2cccc23)c1	318
CC(=O)NCc1ncn2c1CN(C(=O)c1ccc[nH]1)CCC2	-25
COCC1CN(S(=O)(=O)c2ccccc2)Cc2ccnn2C1 (stereo not given)	-3
COc1ccc(NC(=S)N2CCN(CCN3C(=O)c4cccc5cccc(c45)C3=O)CC2)cc1	-10
Cc1nn(C)cc1-c1cncn1CC(C)N1CCCCC1 (stereo not given)	8
COc1cccc(NC(=O)C2CN(C(=O)c3snnc3C)C2)c1	-49
Cc1ccccc1CNC1=NCCNC12CCN(S(=O)(=O)c1cccs1)CC2	4
O=C(Cc1ccccn1)N1CC[C@@H]2[C@H](CO)Nc3ccc(-c4cccc(F)c4)cc3[C@@H]21	32

# New compounds follow.
mol	Tg IFNy HTS
Cc1nn(CCNC(=O)C[C@@H]2C[C@@H]3C=C[C@H]2C3)c(C)c1Cl	1
Cn1cnc(S(=O)(=O)N2CC[C@@H](O)[C@@H]2Cc2cnn(C)c2)c1	-27
COc1ccc(CCNC(=S)NC2CC3CCC2C3)cc1OC (stereo not given)	19
Cc1nnsc1C(=O)Nc1cc(-c2ccccc2)nn1C	52
CN(Cc1cc(-c2ccncc2)no1)Cc1cc2ccccc2o1	0
Cc1ccsc1CN(CCCN1CCOCC1)CC1=Cc2ccccc2OC1	98
CCN1c2ccc(C)cc2C(=O)NC12CCN(C(=O)c1cc(F)cc(F)c1)CC2	-16
CC(C)NC(=O)N[C@H]1CC[C@@H](CC(=O)NCCCN(C)C)O[C@@H]1CO	-7

# Following part
mol	Tg IFNy HTS
CC(C)(C)NC(=O)COC(=O)c1nsc(Cl)c1Cl	-17
CCc1ccc(CNC2CCc3[nH]c(=O)ccc3C2)o1 (stereo not given)	110
CCS(=O)(=O)N1CCn2c(CNC(=O)c3cccn3C)cnc2C1	-2
CC(C(=O)N1CCC(c2nn(C)c3ncccc23)CC1)c1ccccc1 (stereo not given)	-7
COc1ccc2c3c(n(C)c2c1)[C@@H](CO)N(Cc1ccccc1OC)CC31CCN(CC2CC2)CC1	-11
CCCc1cncnc1N1CCCC(N2CCN(c3ccccc3OC)CC2)C1 (stereo not given)	16
O=C(O/N=C1/C(=O)c2ccccc2-c2ccccc21)c1ccccc1	-103*
O=C(Nc1cccc(Cl)c1)c1ncn2c1CN(CC1CC1)S(=O)(=O)c1ccccc1-2	-12

# Overlap with the part before: 2 entries; new compounds follow.
mol	Tg IFNy HTS
O=C(O/N=C1/C(=O)c2ccccc2-c2ccccc21)c1ccccc1	-103*
O=C(Nc1cccc(Cl)c1)c1ncn2c1CN(CC1CC1)S(=O)(=O)c1ccccc1-2	-12
CCOC(=O)c1c[nH]c2onc(C)c2c1=O	108
S=C1NCN(CCCCc2ccccc2)CN1	1
O=C(c1cccnc1)N1CCC2(CC1)Nc1ccc(Cl)cc1-n1cccc12	67
CC(C)NC(=O)[C@@H]1C[C@@H]2OCC[C@@H]2N(CCOCc2ccccc2)C1	-29
Cc1cnccc1N1CCCN(C(=O)C2CC3(CCNCC3)CN2)CC1 (stereo not given)	-1
CCCN(Cc1cccnc1)Cc1cnc2c(-c3ccccc3)cnn2c1	-12
CC1Cc2ccccc2N1C(=O)c1sc2nc3cc4c(cc3cc2c1N)OCO4 (stereo not given)	15
C[C@H](CO)N1C[C@H](C)[C@H](CN(C)C(=O)[C@H](Cc2ccccc2)N(C)C)OCc2ccccc2-c2c(n(C)c3ccccc23)C1=O	-52

# Other entries follow.
mol	Tg IFNy HTS
COCCNC1=NCCNC12CCN(S(=O)(=O)c1ccc(C(C)C)cc1)CC2	15
COC(=O)c1cc(OC)c(OC)c(OC)c1NC(=O)c1cccs1	-24
CCCn1cnnc1CN(C)Cc1cc2n(n1)CCNC2	11
CCCC(=O)Nc1cccc(C(=O)NCC2CC(CC)=NO2)c1 (stereo not given)	1
C[C@@H]1CCCCO[C@@H](CN(C)C(=O)Nc2cccc3ccccc23)[C@H](C)CN([C@@H](C)CO)C(=O)c2cc(NC(=O)CCC(F)(F)F)ccc2O1	28
CO[C@H]1CN(C)C(=O)c2cc(NC(=O)c3nc4ccccc4s3)ccc2OC[C@H](C)NC[C@@H]1C	-17
COCC12CCCOC1CCN(C(=O)Cc1ccsc1)C2 (stereo not given)	70
COC(=O)c1cccnc1N1CC[C@@H](c2ccc3ccccc3c2)[C@H](O)C1	0

# Continued.
mol	Tg IFNy HTS
O=C(c1ccccc1F)N1CCC2(CCCN2c2ncccn2)CC1	-6
CCOc1ccc(Cl)cc1CN(C)Cc1cc2n(n1)CCNC2	-5
COc1ccc(-c2nc(N3CCN(c4ccccc4F)CC3)c3ccccc3n2)cc1	-8
CCOC(=O)c1noc2ncn(Cc3nc(-c4ccc(C)cc4)oc3C)c(=O)c12	-25
O=C1NC2(CCN(C(=O)c3cnn4cccnc34)CC2)Nc2ccccc21	13
Cn1cc(-c2cnc3n2CCC32CCN(S(C)(=O)=O)CC2)cn1	0
COc1ccccc1-c1ccc([C@H]2[C@H]3CN(C(=O)c4cccnc4)CCCCN3[C@H]2CO)cc1	-19
COCC12CCCOC1CCN(S(=O)(=O)c1cn(C)cn1)C2 (stereo not given)	-46

# Later entries
mol	Tg IFNy HTS
CC(=O)N1N=C(c2ccc(Br)cc2)CC1c1nc2ccccc2[nH]1 (stereo not given)	13
O=C(c1cnccn1)N1CCC2(CC1)CCN(c1ncc(F)cn1)C2	2
CCOCCn1nc(C)cc1C(=O)N1CCCC2(CNC(=O)O2)C1 (stereo not given)	-1
CCN(CC)C(=O)c1cc(=O)n(CC(=O)Nc2cccc(Cl)c2C)c2ccccc12	-51
O=S(=O)(NCCc1csc(-c2cccc(F)c2)n1)c1cccs1	-35

# High-throughput results from PubChem.
